NPYLR7 ag: mosquito NPYLR7 agonism; HEK293T NPYLR7/Galpha15, GCaMP6s calcium fluorescence; activation, % at 10 µM; actives 0.15% (n = 270,000); AID 1259423; in the data active means activation above about 40%;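 further: 0% = vehicle and 100% = reference agonist at the receptor; some compounds past the cut are filed as inactive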
NPYLR7 ag max-min: second read-out of NPYLR7 ag, no call of its own (marks repeat the call); activation, %; measured here: Max-Min RFU normalised activation; some inactives read as strong as hits;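 span of the calcium signal over five minutes; 0% = vehicle and 100% = native peptide agonist; compound fluorescence can raise it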
* = called active by the depositor; & = joins results of further samples.

SMILES | NPYLR7 ag | NPYLR7 ag max-min
CCCCN(C(=O)CCSC)c1c(N)n(CCC)c(=O)[nH]c1=O | 9 | 11
O=[N+]([O-])c1ccc2c(c1)C=C1CCCCC1(N1CCCCC1)O2 (stereo not drawn) | 0 | 0
CC(C)COC1CCN(C(=O)C(=O)Nc2nccs2)CC1 | 4 | 3
CCCSc1ncccc1C(=O)Nc1ccc(-c2ccccc2)cc1 | -4 | -9
COCCN(Cc1ccc(C)o1)C(=O)Nc1ccc(F)cc1C | 3 | 0
CCCc1ccc(S(=O)(=O)N2CCN(c3nccc(-c4cccs4)n3)CC2)cc1 | 11 | 17
CCCN(C(=O)Nc1cccc(Cl)c1)C(C)c1nc2ccccc2c(=O)n1-c1cc(OC)cc(OC)c1Br (stereo not drawn) | -1 | 6
O=S(=O)(NCc1cccs1)c1cc(Br)ccc1Br | -8 | -11
Cc1c(C)[n+]([O-])c(-c2ccc([N+](=O)[O-])cc2)n1O | -1 | -2
CCCCc1nc(N2CCN(C(=O)CCC(=O)OCC)CC2)c2c3c(sc2n1)CCCC3 | -1 | 1
COC(=O)C1C(C)=NC2=C(C(=O)CC(C)(C)C2)C1c1ccc(C)o1 (stereo not drawn) | 1 | -1
CCn1c(=O)c2c(nc3n(-c4ccc(Br)cc4)c(C)c(C)n23)n(C)c1=O | 0 | -3
C=CCn1c(=O)c2c(nc3n2CC(C)CN3c2ccc(C)cc2)n(C)c1=O (stereo not drawn) | 11 | 5
CCOC(=O)NC(=O)CN1CCCc2cc(C)ccc21 | -16 | -18
O=C(c1ccccc1)c1ccc2c(c1)OC=CO2 | -3 | -3
FC(F)(F)c1ccccc1C=NN1CCN(c2ccc(Cl)cc2)CC1 | -1 | -5
Cn1c(SCC(=O)Nc2sc3c(c2C#N)CCC3)nnc1C1CC1 | -3 | 6
Cn1c(CO)nc2cc(N=Cc3cc(Br)cc(Br)c3O)ccc21 | 2 | -2
CCCC(CCC)C(=O)NNc1cc(=O)c2c(=O)n(C)c(=O)n(C)c2[nH]1 | 10 | 8
CCOC(=O)CNc1c(-c2ccc(OS(=O)(=O)c3cc(Cl)ccc3Cl)cc2)nc2ccc(Cl)cn12 | -4 | -3
O=C(c1ccc(CSc2nc3ccccc3o2)cc1)N1C2CCC1CC(Oc1ccc3c(c1)OCO3)C2 (stereo not drawn) | 9 | 9
CC(C)OC(=O)C(N)c1ccccc1 (stereo not drawn) | -2 | 2
COc1ccccc1Cn1c(C)c(C(=O)NCc2ccc(C(F)(F)F)cc2)sc1=O | -8 | -8
CCC(C(=O)Nc1c(C)nc2scc(C)n2c1=O)c1ccccc1 (stereo not drawn) | 13 | 1
CCOC(=O)c1cn[nH]c1S(=O)(=O)Nc1ccccc1F | -1 | -4
The listing continues.
SMILES | NPYLR7 ag | NPYLR7 ag max-min
COc1ccc(S(=O)(=O)N(C)C)cc1NC(=O)CSc1ncnc2sc(C)c(C)c12 | 8 | 7
Cn1nc(C(=O)N2CC[C@@H](c3ccc4c(c3)OCO4)[C@H](O)C2)ccc1=O | 1 | 1
Cc1cccc(OCCN(C)Cc2cc(=O)oc3c(C)c(O)ccc23)c1 | 2 | 20
Cc1ccc(-n2ccnc(SCC(=O)c3ccccc3)c2=O)cc1 | -2 | 0
CC(C)(C)c1cc(-c2csc(Nc3ccccc3)n2)cc(C(C)(C)C)c1O | -12 | -17
O=C(C1CCOC1)N1CCC(n2cnc3ccccc32)CC1 (stereo not drawn) | 8 | 4
CC(C(=O)Nc1cccc2ncccc12)N1CCN(C(=O)C2CC2)CC1 (stereo not drawn) | 8 | 2
CNC(=O)NC(=O)CSc1nnc(NCCc2ccccc2)s1 | 2 | 5
COc1ccc(C(=O)N(CCc2ccccc2)CC(=O)Nc2cc(C(C)(C)C)nn2-c2ccccc2Cl)c(OC)c1 | -8 | 3
O=C(O)C1CCCN(c2nc(Cc3ccccc3)ns2)C1 (stereo not drawn) | 11 | 12
CCN(Cc1cnn(C)c1)C(=O)c1ccc(C)c(N2CCNC2=O)c1 | 1 | 0
COCCCN(CC(=O)N(Cc1ccccc1)Cc1cccs1)C(=O)C1CC1 | -1 | 8
Cc1ccc2nc(-c3cccc(NC(=O)c4cc([N+](=O)[O-])ccc4Br)c3)oc2c1 | 9 | 7
COc1ccc(CC(=O)N2CCC[C@@H]2C(=O)NC2CCC(NC(=O)c3ccccc3)CC2)cc1 (stereo partly drawn) | 1 | 7
Cc1ccoc1C(=O)N1CC(=O)N(C2CCCCC2)CC(OCc2ccccc2)C1 (stereo not drawn) | -19 | -12
COCC(C)NS(=O)(=O)c1c(Cl)cccc1Cl (stereo not drawn) | 4 | 1
CC(C)(C)NC(=O)C1(C)CC2c3ccccc3C1c1ccccc12 (stereo not drawn) | -3 | -9
C=CCN(CC(=O)N(CCc1ccc(OC)c(OC)c1)Cc1ccc(C)o1)C(=O)Nc1cccc(F)c1 | -8 | -14
CSCc1noc(CN2CCCC3(CC2)CNC(=O)O3)n1 (stereo not drawn) | 3 | 3
Cc1cc(C2=NNC(=NC3CC3)SC2)c(C)n1-c1ccccn1 | -21&-2 | -25&-3
O=C(Nc1cccc(Cl)c1)NC1CCN(c2ccccc2C(=O)NCCc2ccccc2)CC1 | 23 | 16
CCC(NC(=O)c1cc(COc2ccc(OC)cc2Cl)on1)c1ccncc1 (stereo not drawn) | 7 | 8
CCC1(CC)NC(=O)N(CC(O)COc2cc(C)ccc2C)C1=O (stereo not drawn) | 1 | 6
COc1ccccc1-n1c(CNC(=O)COc2ccccc2)nnc1SCC(=O)N1CCc2ccccc21 | 7 | 8
O=C(O)Cn1nncc1-c1ccc(C(F)(F)F)cc1 | 3 | 0

Next section, overlapping the part above by 4 compounds.
SMILES | NPYLR7 ag | NPYLR7 ag max-min
CCC(NC(=O)c1cc(COc2ccc(OC)cc2Cl)on1)c1ccncc1 (stereo not drawn) | 7 | 8
CCC1(CC)NC(=O)N(CC(O)COc2cc(C)ccc2C)C1=O (stereo not drawn) | 1 | 6
COc1ccccc1-n1c(CNC(=O)COc2ccccc2)nnc1SCC(=O)N1CCc2ccccc21 | 7 | 8
O=C(O)Cn1nncc1-c1ccc(C(F)(F)F)cc1 | 3 | 0
COc1ccc(N2C(=O)CN(C(=O)COc3ccccc3OC)CC23CCCC3)cc1 | -2 | -4
CC1CN(C(=O)CCCSc2nnc(-c3ccccc3)n2-c2cccc(C(F)(F)F)c2)CCN1C(=O)c1ccc(F)cc1 (stereo not drawn) | 7 | 16
COCCNC(=O)c1c(NC(=O)COc2ccccc2)sc2c1CCCC2 | 1 | 2
COc1cccc(C(=O)Nc2nn(C)c3c2CC(C)C(=O)N3)c1OC (stereo not drawn) | -18 | -23
CN(C)S(=O)(=O)c1cccc(NC(=O)CN(C)S(=O)(=O)c2cccs2)c1 | -1 | 18
CC(C)OC(=O)C(C)(C)Oc1ccc(C(=O)c2ccc(Cl)cc2)cc1 | -6&-9&1&-8 | -13&-11&-4&-2
CC1CCCCC1NC(=O)c1ccc[nH]c1=S (stereo not drawn) | 1 | -1
Cc1cccc(-c2cc(N)n(-c3ccc(C(=O)NCCc4cccnc4)cc3)n2)c1 | -6 | -9
CC1(C)CN=C(SCc2nc3c(Br)cc(Br)cc3c(=O)[nH]2)NC1 | -1 | -2
COCc1ccc(CNC(=O)/C=C/c2ccc(C)s2)cc1 | 0 | -2
CCOc1ccc(-c2nc(N)ncc2Oc2cccc(OC)c2)c(O)c1 | 2 | -3
O=C(NCCn1ncccc1=O)NC1CCCCC1 | -14 | -19
Cc1onc(-c2ccccc2)c1C(=O)Nc1ccc2c(c1)OCO2 | -2 | -4
Cc1cccc(NC(=O)N(CC(=O)N(CCc2c[nH]c3ccccc23)Cc2ccc(Cl)c(Cl)c2)C2CC2)c1C | 32 | 19
CN1CCCC1(C)C(=O)Nc1ccc2scnc2c1 (stereo not drawn) | 3 | -1
O=C1CCCCCC1C1(O)C(=O)Nc2ccc(Br)cc21 (stereo not drawn) | 5 | 4
CC1CN(C(=O)CCc2nc(C(C)C)no2)c2ccccc2N(C(=O)OC(C)(C)C)C1 (stereo not drawn) | 0 | -1
COc1cc(CCC(=O)N2CCN(C(C)=O)CC2)cc(OC)c1OC | 17 | 14
Cc1csc(C(=O)N2CCC(C(=O)NCC#N)CC2)c1 | 4 | 0
OC1(C(F)(F)F)CC(/C=C/c2ccccc2)=NO1 (stereo not drawn) | 6 | 4
CCOc1ccc(CN(Cc2nc(C(=O)NCCN3CCOCC3)co2)C(C)CC)cc1 (stereo not drawn) | 15 | 33
O=C(NCc1ccncc1)C1(c2cccc(Br)c2)CC1 | 4 | 3
CCCN(Cc1ccc(C)cc1)C(=O)c1cnc2c(c1)c(=O)[nH]c(=O)n2C | 7 | 5
CC(O)C1CCN(C(=O)c2ccc(F)c(Br)c2)CC1 (stereo not drawn) | 8 | 2
O=C(c1cccc(F)c1)N1CCC(CN2C(=O)CSC2c2ccc(Cl)c(Cl)c2)CC1 (stereo not drawn) | 13 | 21
Additional results follow.
SMILES | NPYLR7 ag | NPYLR7 ag max-min
COc1ccc(OC)c(-c2nnc3ccc(OCCNC(=O)Nc4cccs4)nn23)c1 | 13 | 6
O=C(CSc1ncnc2sc3c(c12)CCCC3)Nc1ccc2c(c1)OCO2 | -3 | -7
CC(C)NC(=O)CN1CCN(c2ccnc(-c3ccccc3)n2)CC1 | 10 | 4
CC(c1nc(N)nc(N(C)C)n1)N(C)Cc1cccc(Cl)c1 (stereo not drawn) | 1 | 16
c1coc(CNc2ncnc3nc[nH]c23)c1 | -3&4 | -4&3
Cc1ncnc(N2CCC(c3n[nH]c(=O)n3Cc3ccccc3)CC2)c1C | 7 | 3
CC(C)Cc1nc(N2CCCN(C(=O)c3ccc(Br)cc3)CC2)c2cnn(-c3ccccc3)c2n1 | 11 | 10
CC(C)(C)NC(=O)N1CCn2cccc2C1c1ccc(Cl)cc1 (stereo not drawn) | 7 | 3
CCc1csc(CNC(=O)CCc2nc3ccc(F)cc3[nH]2)n1 | 3 | -1
COc1cccc(C=CC(=O)c2ccc(C#N)cc2)c1OC | 12 | 2
Cc1cccc(NC(=O)c2cn(CC3CCCO3)cc3c(=O)n(-c4ccccc4)nc2-3)c1 (stereo not drawn) | 7 | 6
COCC1(C(=O)NCC2CC(=O)N(C3CCCC3)C2)CCC1 (stereo not drawn) | 2 | -1
CCCCCCNC(=O)c1cc(-c2ccc(Cl)cc2)n(-c2ccc(OC)cc2)c1C | -6 | 0
CC(=O)N1CCN(C(=O)CSc2nnc(-c3c[nH]c4ccccc34)n2-c2ccc(Cl)cc2)CC1 | 0 | -1
CCCCc1ccc(-n2c(C)c(C)n3c4c(=O)n(CCCO)c(=O)n(C)c4nc23)cc1 | 3 | 0
O=C(/C=C\c1ccc2c(c1)OCO2)Nc1c2c(nn1-c1ccc(F)cc1)CSC2 | 1 | -2
O=C(NCc1cccs1)c1cccnc1N1CCN(C(=O)c2c(F)cc(F)cc2F)CC1 | 19 | 9
COc1ccccc1N1CCN([C@H]2[C@@H]3OC[C@@H](O3)[C@@H](N(CC3CC3)CC3CC3)[C@@H]2O)CC1 | -6 | -12
CCOC(=O)c1ccc(OC2CC3CCC(C2)N3C(=O)c2ccc(CSc3ccc(C)c(C)c3)cc2)cc1 (stereo not drawn) | 19 | 11
COc1ccccc1-n1c(SCCCC(=O)N2CCC(Cc3ccccc3)CC2)nnc1-c1ccc(C)cc1 | -9 | -1
CC(C)c1cc(=O)n(CC(=O)NCCc2ccccc2)cn1 | 11 | 2
N#Cc1cc(F)c(N2CCOC(c3ccc(Br)cc3)C2)c(F)c1 (stereo not drawn) | 11 | 6
C=CCn1c(=O)c2c3c(sc2n2c(Nc4ccccc4)nnc12)CCC3 | 2 | 33
C=C(C)Cn1c(=O)c2c(nc3n2CCCN3c2ccc(Cl)cc2)n(C)c1=O | 2 | 1
CC(C)N1CCC(N2CCN(Cc3c[nH]c4ccccc34)CC2CCO)CC1 (stereo not drawn) | 5 | 5
(cont.)
SMILES | NPYLR7 ag | NPYLR7 ag max-min
CC(C(=O)NC(N)=O)N1CCC(C(=O)Nc2ccc(F)cc2)CC1 (stereo not drawn) | 11 | 6
COc1cccc(C2SCCN2C(=O)C2CC2)c1OC (stereo not drawn) | -7 | 0
Cc1c(C)n2c3c(=O)n(Cc4ccccc4F)c(=O)n(C)c3nc2n1CC1CCCO1 (stereo not drawn) | -2 | 23
Cc1ccccc1-c1noc(CCC(=O)N2CCC3(CN(C)C(=O)O3)C2)n1 (stereo not drawn) | 1 | 3
COc1ccc(NC(=O)C2(C)CCN2Cc2cccc(OC)c2F)cc1OC (stereo not drawn) | -5 | -6
Cn1nnc2c(N3CCN(c4ccc(F)cc4)CC3)ncnc21 | 14 | 8
COCCCNC(=O)C(NC(=O)c1ccc(OC)cc1)C1CCN(S(=O)(=O)c2ccc(C)cc2)CC1 (stereo not drawn) | -13 | -13

Molecules above with an NH in an aromatic ring (twelve):
SMILES | NPYLR7 ag | NPYLR7 ag max-min
CCCCN(C(=O)CCSC)c1c(N)n(CCC)c(=O)[nH]c1=O | 9 | 11
CCCC(CCC)C(=O)NNc1cc(=O)c2c(=O)n(C)c(=O)n(C)c2[nH]1 | 10 | 8
CCOC(=O)c1cn[nH]c1S(=O)(=O)Nc1ccccc1F | -1 | -4
CC1CCCCC1NC(=O)c1ccc[nH]c1=S (stereo not drawn) | 1 | -1
CC1(C)CN=C(SCc2nc3c(Br)cc(Br)cc3c(=O)[nH]2)NC1 | -1 | -2
Cc1cccc(NC(=O)N(CC(=O)N(CCc2c[nH]c3ccccc23)Cc2ccc(Cl)c(Cl)c2)C2CC2)c1C | 32 | 19
CCCN(Cc1ccc(C)cc1)C(=O)c1cnc2c(c1)c(=O)[nH]c(=O)n2C | 7 | 5
c1coc(CNc2ncnc3nc[nH]c23)c1 | -3&4 | -4&3
Cc1ncnc(N2CCC(c3n[nH]c(=O)n3Cc3ccccc3)CC2)c1C | 7 | 3
CCc1csc(CNC(=O)CCc2nc3ccc(F)cc3[nH]2)n1 | 3 | -1
CC(=O)N1CCN(C(=O)CSc2nnc(-c3c[nH]c4ccccc34)n2-c2ccc(Cl)cc2)CC1 | 0 | -1
CC(C)N1CCC(N2CCN(Cc3c[nH]c4ccccc34)CC2CCO)CC1 (stereo not drawn) | 5 | 5

Compound activity (PubChem)

These rows are one share of the data. The share of hits here may be higher or lower than overall.
